PV pol inh = inhibitors of poliovirus RNA polymerase binding and polymerization | poliovirus polymerase elongation, fluorescence polarization; active compounds read low | % elongation, % (compound at 16.7 µg/mL) | actives 0.66% (n = 150,000) | AID 588519; in the data active = % elongation below about 90%; also: some results filed as inactive read as strong as hits
Target sequence (P03300 1749-2209 limits assumed): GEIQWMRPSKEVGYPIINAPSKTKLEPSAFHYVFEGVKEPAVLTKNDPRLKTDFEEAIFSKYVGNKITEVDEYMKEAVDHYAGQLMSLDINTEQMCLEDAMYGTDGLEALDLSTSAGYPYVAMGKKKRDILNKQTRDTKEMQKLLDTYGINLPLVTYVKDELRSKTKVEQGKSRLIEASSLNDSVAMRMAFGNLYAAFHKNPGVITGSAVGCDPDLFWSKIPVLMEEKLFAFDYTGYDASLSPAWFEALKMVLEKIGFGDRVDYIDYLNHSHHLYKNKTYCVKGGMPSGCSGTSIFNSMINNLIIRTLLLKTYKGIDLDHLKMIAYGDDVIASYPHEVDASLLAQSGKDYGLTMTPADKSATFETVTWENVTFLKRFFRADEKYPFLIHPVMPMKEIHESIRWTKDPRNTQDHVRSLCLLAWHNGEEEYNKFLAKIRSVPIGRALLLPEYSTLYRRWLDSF
MbtI inh = blocks the Mycobacterium tuberculosis siderophore enzyme MbtI | P9WFX0 | purified MbtI enzyme, fluorescence intensity read-out | inhibition, %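 (about 17 µg/mL by stock and volumes)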 | actives 0.89% (n = 100,000);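 active = above 50% in both replicates, above 80% if mildly self-fluorescent; inactive = the rest, strongly fluorescent compounds included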;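 also: 0% = mean of negative and 100% = mean of positive controls; one replicate is shown; some compounds called inactive have numbers as strong as hits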
PV pol inh intensity = further read-out of PV pol inh, marked with its call; % elongation; measured here: total intensity read-out; formula for this scale not given here;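 total fluorescence in place of polarization; lower means less elongation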
An asterisk follows results filed as active; · = not tested or not shown. The list is partial; rates above refer to the full screens.

SMILES	PV pol inh	PV pol inh intensity	MbtI inh
CCC(=O)Nc1cc(C(C)(C)C)on1	·	·	2
Cc1c(C(C)C)c(=O)n(-c2ccccc2)n1C	·	·	5
Cc1ccc(CNC(=O)C2CCN(S(=O)(=O)c3c(C)noc3/C=C/c3ccccc3F)CC2)o1	112	112	·
CC(C)(C)c1ccc(S(=O)(=O)c2cnc(SCC(=O)Nc3ccc(F)c(Cl)c3)[nH]c2=O)cc1	103	105	·
COc1cc(C(=O)NC(c2ccccc2Cl)c2cc(Cl)c3cccnc3c2O)cc(OC)c1OC (centres undefined)	106	147	·
Cc1nc2nc(NC(=O)c3cccc(Cl)c3)[nH]n2c(=O)c1Cc1ccccc1	105	99	·
COc1ccc2c(CNCCc3ccccc3OC)c(C(=O)O)n(Cc3ccc(F)cc3Cl)c2c1	105	104	·
COc1ccc(NC(=O)C2CCCN(c3nnc(C)c4c(C)n(-c5ccccc5)nc34)C2)cc1Cl (centres undefined)	99	92	·

As entered above.
`COc1cc(C(=O)NC(c2ccccc2Cl)c2cc(Cl)c3cccnc3c2O)cc(OC)c1OC` (centres undefined) | PV pol inh = 106
`COc1ccc2c(CNCCc3ccccc3OC)c(C(=O)O)n(Cc3ccc(F)cc3Cl)c2c1` | PV pol inh = 105

Later entries:
SMILES	PV pol inh	PV pol inh intensity	MbtI inh
Cc1cc(Cl)ccc1NC(=O)Cn1nc(C)c2c(C)n(-c3ccccc3)nc2c1=O	103	107	·
Cc1cc(NC(=O)C2CCN(S(=O)(=O)c3ccc4[nH]c(=O)oc4c3)CC2)ccc1Br	104	99	·
COc1ccc(Cn2c(CCC(=O)Nc3cccc(OC)c3)nc3cccnc32)cc1	103	105	·
Cc1ccc(Cc2c(C)nc3c(-c4ccccc4)c(C)[nH]n3c2=O)cc1	111	111	·
CCOc1ccccc1NC(=O)CSc1nc2ccccc2c2nc(CCn3cncc3C)nn12	107	102	·

Of the compounds above, five have four or more nitrogen atoms:
SMILES	PV pol inh	PV pol inh intensity	MbtI inh
Cc1nc2nc(NC(=O)c3cccc(Cl)c3)[nH]n2c(=O)c1Cc1ccccc1	105	99	·
COc1ccc(NC(=O)C2CCCN(c3nnc(C)c4c(C)n(-c5ccccc5)nc34)C2)cc1Cl (centres undefined)	99	92	·
Cc1cc(Cl)ccc1NC(=O)Cn1nc(C)c2c(C)n(-c3ccccc3)nc2c1=O	103	107	·
COc1ccc(Cn2c(CCC(=O)Nc3cccc(OC)c3)nc3cccnc32)cc1	103	105	·
CCOc1ccccc1NC(=O)CSc1nc2ccccc2c2nc(CCn3cncc3C)nn12	107	102	·

Compound activity deposited in PubChem BioAssay by ICCB-Longwood Screening Facility, Harvard Medical School.
